PINK1 modulator: modulators of PINK1 expression; AID 624263; Potency, µM (doses to about 76.6 µM), inactives show at the highest dose activation (PINK1 increase), most hits filed as activators; 410,000 tested, 0.2% active; PINK1 immunofluorescence, high-content cytometry, 24 h; active = well fitted activation curve with a large enough effect; inconclusive = small, poorly fitted or top-dose-only effect; inactive = flat fitted curve, though single readings scatter; cell line not stated here;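 also: potency is read from the fitted curve at half-maximal effect; % of control where 0% means no effect; nearly all actives have a fitted effect of over 65% in size; a mitochondrial uncoupler was the plate control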
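Measures PINK1 amount and localization on or inside mitochondria by immunofluorescence. Stable cells get compounds at 5 concentrations for 24 hours before fixation and staining; CCCP controls included.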
Sfp inh: Sfp phosphopantetheinyl transferase inhibition; Biochemical Sfp PPTase activity, qHTS; 310,000 tested, 3.5% active; Q9F4F7; Potency, µM, for inactives: max response, negative = inhibition, most hits filed as inhibitors; active = well fitted inhibition curve with a large enough effect; inconclusive = small, poorly fitted or top-dose-only effect, or another doubt; inactive = no such curve, though single readings can be large or run the other way;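 also: the enzyme is Sfp with the accession as filed and its product quenches rhodamine fluorescence; potency is read from the fitted curve at half-maximal effect; 0% = enzyme reaction without inhibitor and -100% = no enzyme wells; top concentration of the series not given in the record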
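After 15 min at room temperature with compound, 15 nM Sfp received 5 uM rhodamine-CoA plus 12.5 uM BHQ-2-ybbR (50 mM Hepes pH 7.6, 10 mM MgCl2). Rate came from the fluorescence difference over 30 min, ex 525/em 598 nm.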
gsp antag: antagonists of gsp mutant (McCune-Albright syndrome); gsp-mutant cells, cAMP HTRF, 30 min; control for the full effect not named in the record; Potency, µM (highest dose often 76.9 µM), for the others: top-dose activity change, negative = inhibition, actives largely listed as inhibitors; 340,000 tested, 0.4% active; AID 624288; active = falling curve of any shape with a large fitted effect; inconclusive = falling curve, mostly with a smaller effect; inactive = flat or rising curve; cell line not stated here;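 also: intracellular cAMP measured with PDE inhibitor Ro 20-1724 present during compound exposure; potency is read from the fitted curve at half-maximal effect; % is scaled to controls: 0 for no effect and ±100 for the full control effect; nearly all actives have a fitted effect of over 65% in size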
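HTRF cAMP measurement after 30 min RT detection following 30 min, 37C compound treatment alongside […] (added as 300 uM solution) in G418-selected cells seeded at 2000/well and grown 16–24 h.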
D2 ag: agonists of human D2 dopamine receptor (beta-arrestin); DiscoveRx PathHunter D2 beta-arrestin, luminescence, 90 min; 100% = 57 uM dopamine signal; activation, % (test concentration not listed); AID 624465; 360,000 tested, 0.084% active; in the data active = activation above about 40%; inconclusive = about 15% to 40%; inactive = below about 15%; also: compound concentration not given in the record; the text of the record calls up to 30% inactive
Target sequence (P14416 whole entry, looked up): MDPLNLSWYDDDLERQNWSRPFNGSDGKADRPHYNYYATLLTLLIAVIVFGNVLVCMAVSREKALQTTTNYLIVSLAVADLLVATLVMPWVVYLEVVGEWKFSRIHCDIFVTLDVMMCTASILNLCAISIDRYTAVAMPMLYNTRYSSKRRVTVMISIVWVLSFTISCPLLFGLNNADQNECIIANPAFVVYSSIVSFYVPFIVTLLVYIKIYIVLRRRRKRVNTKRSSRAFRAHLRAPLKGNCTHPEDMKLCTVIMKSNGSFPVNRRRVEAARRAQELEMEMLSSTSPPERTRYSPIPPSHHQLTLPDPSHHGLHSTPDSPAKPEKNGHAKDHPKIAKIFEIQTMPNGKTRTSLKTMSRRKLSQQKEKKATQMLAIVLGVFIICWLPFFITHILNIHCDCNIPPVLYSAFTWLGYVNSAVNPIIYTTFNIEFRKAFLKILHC
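Agonist mode: compounds alone added to overnight-plated D2 PathHunter cells for 90 min at 37 C, with 57 uM final dopamine (EC100) defining full response. Beta-arrestin recruitment detected by chemiluminescent reagent, read after 1 h at ambient temperature.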
ClpP mod: qHTS Assay for Activators of ClpP; ATP-dependent Clp protease proteolytic subunit (Bacillus subtilis (strain 168)), P80244; purified B. subtilis ClpP, FRET peptide cleavage, 20 min; Potency, µM (top dose mostly 57.5 µM), for inactives: at the highest dose activity change, negative = active; 340,000 tested, 1.9% active; active = well fitted falling curve with a large enough effect; inconclusive = small, poorly fitted or top-dose-only effect; inactive = no such curve, though single readings can be large or run the other way; also: potency is read from the fitted curve at half-maximal effect; the source files actives as falling curves though it sought activators and does not explain the sign; nearly all actives have a fitted effect of over 65% in size; many hits overshoot -100%
Target sequence (P80244 whole entry, looked up): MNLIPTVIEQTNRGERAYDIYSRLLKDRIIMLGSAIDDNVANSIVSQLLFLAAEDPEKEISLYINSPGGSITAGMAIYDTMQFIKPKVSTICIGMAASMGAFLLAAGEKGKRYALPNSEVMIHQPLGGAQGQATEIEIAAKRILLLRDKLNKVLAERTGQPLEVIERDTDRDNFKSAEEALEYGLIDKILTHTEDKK
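ClpP 10 microg/mL final, pH 8 Tris/KCl buffer with BSA, glycerol, Tween-20; compound pinned in; FRET-FV substrate; RT 20 min; Ex320/Em430; ΔFRET vs ADEP 5.8 microM, DMSO, no enzyme.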
Menin-MLL FL inh: inhibitors of human menin-MLL interaction, wild-type MLL peptide; Fluorescence polarization, fluorescein-MLL peptide displacement from menin; FP activity change, % at 61.4 µM; 290,000 tested, under 10 active; AID 1766; inconclusive = falling polarisation curve, or a change in total fluorescence; inactive = total fluorescence flat and polarisation flat or rising; no compound was filed as active; the % refers to the polarisation; negative = inhibition;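 also: % of control where 0% means no effect; inhibitors lower the polarisation; unlabelled MLL peptide was the positive control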
gsp agonist: agonists of gsp mutant (McCune-Albright syndrome). 340,000 tested, 0.13% active. gsp mutant cells, cAMP HTRF, 30 min; control for the full effect not named in the record. AID 624287. Potency, µM (top dose mostly 76.9 µM), for inactives: at the top dose activation (cAMP increase), most hits filed as activators; active = well fitted activation curve with a large enough effect; inconclusive = small, poorly fitted or top-dose-only effect, or another doubt; inactive = no such curve, though single readings can be large or run the other way; cell line not stated here;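 also: phosphodiesterase inhibitor Ro 20-1724 added with compounds to block cAMP breakdown; potency is read from the fitted curve at half-maximal effect; nearly all actives have a fitted effect of over 60% in size; about a fifth of the inactives were tested at one dose only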
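Cells in DMEM/10% FBS with G418 were pretreated with compounds in DMSO plus […] (300 uM stock) for 30 min at 37C. cAMP was measured by HTRF (cAMP-d2 plus anti-cAMP antibody-K) after 30 min at room temperature.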
The depositor's hits bear a star; ? = inconclusive; . = no result given; & = joins results of further samples; [ ] = remark or other dose.

SMILES | PINK1 modulator | Sfp inh | gsp antag | D2 ag | ClpP mod | Menin-MLL FL inh | gsp agonist
O=C(Nc1nc2ccccc2n1CCN1CCOCC1)c1ccc(Cl)cc1 | 3.1% | 21% | -4% | -2.1 | . | 4.8 | -6%[15.4 µM]
Cc1nc(-c2ccc(F)cc2)c(CC(=O)N(C)CC(=O)Nc2ccc(Br)cc2C)s1 | 3.0% | . | ? | -4.1 | . | . | -14%[15.4 µM]
COc1ccc(C(CNC(=O)c2ccc(NS(=O)(=O)c3ccccc3)cc2)N2CCOCC2)cc1 (stereo unspecified) | -1.8% | . | ? | -5.0 | -2.3% | . | 5%[15.4 µM]
CCOC(=O)N1CCN(C(=O)CCS(=O)(=O)c2ccc3c(c2)CC(C)N3C(=O)CC)CC1 (stereo unspecified) | 4.7% | 7% | ? | -0.8 | 1.7% | . | 9%
COc1ccc(OC)c(S(=O)(=O)N2CCC(C(=O)NC3CCCCCC3)CC2)c1 | 0.8% | 9% | -6% | 0.8 | . | 7.1 | -5%[15.4 µM]
Cn1c(-c2ccc(C=O)s2)nc2c3ccccc3c3ccccc3c21 | 3.9% | -5% | ? | -0.2 | 4.8% | ? | ?
COC(=O)c1ccc(NC(=O)CN2CCC(NC(=O)c3ccco3)CC2)cc1 | 2.7% | 0% | -2% | -3.4 | 0.1% | -0.9 | ?
CC(C)C(=O)NCCc1nc2ccccc2n1C | 0.9% | 1% | 9% | -3.6 | 3.6% | 2.9 | -14%
CC(C)(C)OC(=O)C[C@@H]1C/C=C\C[C@H](CC(=O)N(CCO)Cc2ccccc2)C(=O)N[C@H](C(C)(C)C)COC1=O | -1.2% | . | -3% | -9.4 | -2.2% | . | 0%
CC(C)(C)c1cc2cccnc2n1Cc1cccc(F)c1 | 2.8% | 5% | 1% | -1.5 | -15% | 2.9 | 3%
Cc1ccc(S(=O)(=O)Nc2nc(C)c(C(=O)N/N=C/c3ccccc3)s2)cc1 | -0.2% | 12% | -22% | 0.4 | . | 1.9 | ?
O=C(Nc1ccc(F)cc1)c1ccc(CSc2ccccc2)o1 | 0.3% | 4% | -8% | -1.9 | 0.2% | 3.3 | -32%
Cc1cccc(C)c1NC(=O)CSc1nc2c([nH]1)c(=O)n(C)c(=O)n2C | -1.1% | -3% | 0% | -3.5 | . | 2.5 | 7%[15.4 µM]
COc1ccc(-c2nc3cnccn3c2NC2CCCCC2)cc1-c1cccc(Cl)c1 | 0.0%&2.2% | . | ? | 1.1 | -25% | . | .
Cc1ccc(-n2c(C)nn(CCOc3ccccc3)c2=O)cc1 | 2.3% | 5% | 6% | 3.8 | . | -2.0 | -10%[15.4 µM]
N#Cc1c(NC(=O)c2cc([N+](=O)[O-])ccc2N2CCOCC2)sc2c1CCCC2 | 4.1% | -29% | -14% | 2.3 | . | 11 | 17%[15.4 µM]
Cc1onc(-c2ccccc2Cl)c1C(=O)N(C)CC(=O)Nc1ccc(F)c(F)c1F | -1.0% | . | -10% | -5.5 | -3.0% | . | 2%[15.4 µM]
Cc1ccc(-c2nc(C)sc2CC(=O)OCC(=O)Nc2cccc([N+](=O)[O-])c2)cc1 | 1.1% | 11% | -21% | -2.3 | -2.7% | 4.4 | 3%
N#Cc1ccc(COC(=O)Cn2nnc(-c3ccccc3)n2)cc1 | -1.4% | -2% | -8% | -6.1 | 0.4% | -0.1 | -11%
O=C(N/N=C\c1cn[nH]c1-c1ccccc1)c1cccs1 | 11% | 7% | -2% | -1.5 | 1.9% | -0.5 | -41%[inhibitor]
CC(c1nc2ccccc2c(=O)[nH]1)N1CCN(C)CC1 (stereo unspecified) | -0.8% | -2% | 15% | -3.6 | -1.5% | -1.2 | -22%
COC(=O)c1cccc(NC(=O)/C=C/c2ccc([N+](=O)[O-])cc2)c1 | 8.2% | -8% | ? | 0.5 | -1.8% | 0.1 | 4%[15.4 µM]
Cc1csc(NC(=O)CN2C(=O)c3ccccc3S2(=O)=O)n1 | -1.3% | -4% | 0% | -1.1 | -2.4% | . | -2%
O=C(O)CCC(=O)Nc1ccc(N2CCCCC2)c(C(=O)O)c1 | -0.8% | 7% | 1% | -2.0 | -2.1% | -4.2 | -5%
CN(C)C1=NCCN1CCc1ccccc1 | 0.1% | . | 14% | -0.6 | 0.9% | . | .
Cc1ccc(S(=O)(=O)NCCn2nc(C)nc2C)cc1 | 1.9% | 20% | 7% | 6.6 | . | -1.3 | -2%
O=C(NCCCl)Nc1ccccc1OCCOc1ccccc1NC(=O)NCCCl | 0.0% | 4% | -10% | 2.4 | -0.8% | -1.3 | 14%[15.4 µM]
CC(C)Cc1nnc(NC(=O)CCC(=O)Nc2ccc(F)cc2)s1 | -1.4%[38.3 µM] | 7% | 4% | 0.1 | -0.2% | -1.8 | 14%
COc1ccc(-c2noc(CN(C)S(=O)(=O)c3ccc(C)cc3)n2)cc1 | -0.6% | 2% | ? | -2.5 | -3.1% | 2.3 | 1%
COc1ccccc1OCC(O)Cn1c(=N)n(CCN2CCCCC2)c2ccccc21 (stereo unspecified) | -4.7%[38.3 µM] | -5% | 3% | -1.8 | -1.2% | -0.2 | 14%
O=C(NC1CCCC(C(F)(F)F)C1)c1ccc([N+](=O)[O-])o1 (stereo unspecified) | -0.9% | . | -7% | 10 | 2.3% | . | -51%[inhibitor]
CC(C)NC(=O)[C@@H]1CSC2c3ccccc3C(=O)N21 (stereo partly specified) | 5.1% | 4% | 3% | 0.3 | . | -7.6 | 7%
COc1ccc(Cl)cc1C(=O)n1nc(C)cc1C | -1.9% | -6% | 3% | -1.9 | -5.6% | 4.6 | ?
COc1cc(CN2CCC(C(=O)NC(c3ccccc3)c3ccsc3)CC2)cc(OC)c1 (stereo unspecified) | -0.2% | . | . | -7.4 | 1.0% | . | .
O=C(NCCOc1ccc(Cl)cc1)c1ccc2c(c1)OCCO2 | 2.4% | . | -15% | -0.3 | -0.5% | . | 26%
O=C(CS(=O)(=O)c1ccccc1)NCc1ccc(Cl)cc1 | 2.2% | 16% | 7% | 1.7 | 0.9% | . | ?
CN(CCOC(=O)c1ccco1)Cc1ccccc1 | 2.2% | 9% | 1% | -3.8 | 0.7% | 2.8 | 18%
CN1CCN(C(=O)c2cnn3c(C(F)F)cc(C4CC4)nc23)CC1 | 0.2% | 17% | 3% | 1.8 | -2.2% | -2.4 | -20%
O=S(=O)(NC(=NC1CCCCC1)c1ccccc1F)c1ccccc1 | 1.5% | 10% | 13% | 1.1 | . | -0.2 | -36%[inhibitor]
COc1ccc(-n2ncc(C(=O)N3CCN(c4ccc(F)cc4)CC3)c2C)cc1 | -1.7% | 15% | 2% | 1.1 | . | 2.7 | 1%[15.4 µM]
C=CCn1c(SCC(=O)NCc2ccccc2)nnc1C1CCCCC1 | -1.4% | 9% | -4% | -4.7 | 0.5% | 1.0 | 3%
C[C@@H](C(=O)N1CCN(C(=O)OC(C)(C)C)CC1)n1cc(CCC(=O)O)nn1 | 2.6% | 9% | 0% | -0.1 | -1.2% | -4.0 | .
CC(Nc1c([N+](=O)[O-])c(=O)oc2ccccc12)c1ccccc1 (stereo unspecified) | 0.2% | 7% | -3% | -3.7 | 0.4% | 4.6 | -20%
Cc1ccc(C)c(OCCOCCN2CCOCC2)c1 | 6.8%[38.3 µM] | 1% | -3% | -0.4 | -1.5% | 6.0 | 29%
COCCNC(=O)c1ccccc1NC(=O)Cc1ccccc1 | -0.7% | 18% | 10% | -1.5 | . | -0.5 | 14%
CN1CCN(c2nnc(-c3ccccc3)c(-c3ccccc3)n2)CC1 | -0.1% | ? | 0% | -0.9 | . | 3.4 | -3%[15.4 µM]
CN=c1scc(-c2c[nH]c3ccccc23)n1C | -0.1% | -7% | -8% | -3.3 | . | -5.7 | -30%[inhibitor]
COc1ccc(S(=O)(=O)N(C)CC(=O)N2CCCC2)cc1 | -1.3% | 9% | 4% | -2.3 | -1.4% | -3.1 | 8%[15.4 µM]
CC(C)CCN1CCC(Cc2ccccc2)(NC(=O)c2ccccc2)C1=O (stereo unspecified) | 2.6% | . | 3% | 4.0 | 1.5% | . | -76%[inhibitor]
CC(C)(O)C#Cc1ccc(C(=O)N2CCC(CCC(=O)NC3CC3)CC2)cc1 | ? | 13% | 3% | -3.0 | 9.5% | . | -4%
C=C(C)Cn1c2ccc(NC(=O)NCc3ccc(F)cc3)cc2c(=O)n1C | 4.4% | . | . | 6.3 | 5.0% | . | .
CC1(C(=O)Nc2ccc3c(c2)OCCO3)CCN1C(=O)C1(c2ccc(Cl)cc2)CC1 (stereo unspecified) | 0.6% | . | . | -4.1 | -0.2% | . | .
Cc1ccc(C2=NN(C)c3nc4ccccc4n3C2)cc1 | 2.9% | -15% | 7% | 0.7 | ? | 1.2 | ?
NC1=Nc2cccc3cccc1c23 | -1.3% | 9% | -30% | -2.9 | -2.1% | -0.1 | -8%[15.4 µM]
CCCCNc1cc(=O)n(C)c(=O)n1C | -1.2% | 20% | 12% | -1.4 | -0.4% | -0.7 | -2%
CC1(C)c2ccccc2N(CC(N)=O)C12C=Cc1ccccc1O2 (stereo unspecified) | -1.0% | 14% | 5% | -0.9 | . | 1.9 | 8%
COc1ccc(C(=O)/C=C/Nc2cccc(C)n2)cc1OC | 5.1% | -2% | -13% | 1.5 | 14% | ? | 26%
COc1ccc(CNC(=O)c2cnc3n(c2=O)CCS3)cc1 | 1.0% | 8% | -2% | -3.7 | -0.2% | 3.7 | 13%
N#Cc1ccc(/C=C2\CCn3c2nc2cc(C(=O)O)ccc2c3=O)cc1 | 2.2% | 31%[activator] | -2% | -3.4 | . | -11 | 6%[15.4 µM]
N#CCC(=O)N/N=C\c1ccc(OC/C=C/c2ccccc2)cc1 | -0.1% | 6% | 3% | 4.4 | -3.0% | -0.3 | ?
CC1CCCCN1S(=O)(=O)c1ccc(C(=O)Nc2nnc(C3=COCCO3)o2)cc1 (stereo unspecified) | 0.7% | -3% | -10% | 1.3 | -1.8% | . | 0%[15.4 µM]

Hits appear at their usual frequency; about 5.1% have a hit in one of these screens.
